High-throughput results as filed in PubChem BioAssay.
rRNA inh HTS = reduced GFP signal of wild-type E. coli, primary screen, bacterial rRNA inhibitor project, GFP/RFP fluorescence, OD600, single point; actives 1.6% (n = 350,000); E. coli WT GFP vs humanized-ribosome RFP mutants, 24 h; active compounds read low; DMSO median 0, no signal -100; GFP signal change (wild-type ribosome), % (no concentration beside the values); AID 720706, 2013;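 active means significant combined selectivity score with lowered wild-type GFP, culture density cut under 30%, mutant RFP and density less affected; inactive means any of these conditions unmet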; further: one replicate is shown; some compounds called inactive have numbers as strong as hits
ALR H2O2 inh = inhibitors of human ALR sulfhydryl oxidase, primary screen, biochemical, H2O2 detection, HRP-luminol luminescence, single point; purified ALR, DTT oxidation; inhibition, % (concentration not given with the values); actives 3.8% (n = 290,000);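 active means mean and each replicate at 75% or more; inconclusive means only one of the two met; inactive means neither met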;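 further: stock transfer was 7.5 nL into about 7.5 µL; 0% = neutral wells and 100% = wells with inactivated enzyme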
Target sequence (P55789 whole entry, looked up): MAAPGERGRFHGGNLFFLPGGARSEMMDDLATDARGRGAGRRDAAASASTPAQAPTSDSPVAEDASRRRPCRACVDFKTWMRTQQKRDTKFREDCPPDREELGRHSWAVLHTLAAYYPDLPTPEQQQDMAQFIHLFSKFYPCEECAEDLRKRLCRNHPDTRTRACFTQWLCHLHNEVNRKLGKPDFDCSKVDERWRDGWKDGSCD
HNF4A DNA FP = change in binding of human HNF4A to DNA, primary screen, biochemical, fluorescence polarization, FITC-DNA; activity change, % at 10 µM; actives 0.3% (n = 360,000); 1 h; in the data active means activity change above about 30%, passing the limit was not always enough;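 further: controls were the assay level and a saturating level of protein; the project sought stronger binding though the title names inhibitors; some compounds called inactive have numbers as strong as hits; positive values seem to mean higher polarization but the record does not say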
Target sequence (P41235 whole entry, looked up): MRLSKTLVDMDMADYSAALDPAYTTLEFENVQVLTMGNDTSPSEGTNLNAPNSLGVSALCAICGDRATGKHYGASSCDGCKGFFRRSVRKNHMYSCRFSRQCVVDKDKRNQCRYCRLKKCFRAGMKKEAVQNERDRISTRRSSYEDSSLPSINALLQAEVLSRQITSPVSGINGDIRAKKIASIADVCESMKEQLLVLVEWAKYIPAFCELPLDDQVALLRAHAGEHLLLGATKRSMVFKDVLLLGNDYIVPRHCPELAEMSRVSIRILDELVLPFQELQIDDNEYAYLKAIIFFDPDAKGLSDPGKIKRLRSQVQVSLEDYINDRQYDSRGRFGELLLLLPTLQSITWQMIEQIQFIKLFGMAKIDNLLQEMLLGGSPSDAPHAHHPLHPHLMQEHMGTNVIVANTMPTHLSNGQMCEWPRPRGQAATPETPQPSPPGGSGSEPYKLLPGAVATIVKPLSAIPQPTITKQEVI
Ecoli growth = E. coli growth inhibition, primary screen, OD600; AID 1053175, 2014; OD600 absorbance (concentration not given with the values); actives 0.21% (n = 330,000); Escherichia coli growth, 23 h; active compounds read low;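 active means OD600 absorbance below the run mean of sample wells minus 3.6 SD, in any replicate, cut at about 0.56 in these data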;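 further: stock transfer was 300 nL into about 60 µL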
Vif A3G = inhibitors of Vif binding to APOBEC3G peptide, primary screen, biochemical, TR-FRET, GST-Vif 1-94, biotin-A3G peptide, dose response retest (AID 1117319) | TR-FRET GST-Vif / biotin-A3G peptide binding; higher % means a stronger effect; test concentration not given here; strong numbers were not always called active | actives 0.57% (n = 260,000) | inhibition, %; hits with a dose series show IC50 in µM | Virion infectivity factor (Human immunodeficiency virus type 1 group M subtype B (isolate …;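 active means above the screen mean plus three standard deviations and confirmed in dose response; inconclusive means results disagree or hit not tested in dose response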;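 further: Vif residues 1-94 fused to GST binding biotinylated APOBEC3G peptide 110-148; 0% = full assay without inhibitor and 100% = GST in place of GST-Vif; retest series ran down from 100 µM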
FGF22 binding = binders of human FGF22 protein, primary screen, FGF22 synaptogenesis inhibitor project, biophysical, thermal shift, single point | Fibroblast growth factor 22 (Homo sapiens), Q9HCT0 | actives 1.5% (n = 340,000) | recombinant FGF22 thermal shift, SYPRO orange fluorescence; percent of sucrose octasulfate shift, DMSO zero | AID 651658, 2012 | calls only at 9.99 µM;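 active means melting point raised past a set limit in the mean and every replicate; inconclusive means no clear call; three in four hits are not shown here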
Target sequence (Q9HCT0 whole entry, looked up): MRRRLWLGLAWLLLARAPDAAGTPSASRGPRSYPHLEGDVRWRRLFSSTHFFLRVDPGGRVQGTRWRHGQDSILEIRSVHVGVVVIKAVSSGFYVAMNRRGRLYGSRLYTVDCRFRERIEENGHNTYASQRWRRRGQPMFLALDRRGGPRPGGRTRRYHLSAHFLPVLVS
AF4-AF9 inh = inhibitors of AF4 peptide binding to AF9, primary screen, biochemical, AlphaScreen, biotin-AF4 peptide, FLAG-AF9, single point; inhibition, % at 10 µM; actives 0.47% (n = 350,000); AID 651704, 2012;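 active means every replicate reaching a set inhibition limit, whatever the replicate mean, cut at about 25% in these data; inconclusive means mean inhibition reaches that limit but some replicates miss it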;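 further: 0% = plate neutral control median and 100% = total signal loss; the record names both 10 and 1 µM as test concentration; the first replicate is given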
rRNA inh HTS OD600 = also measured in rRNA inh HTS; calls as there; OD600 change, %; measured here: OD600 growth;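 optical density of the mix in the first replicate; 0 = DMSO median and -100 = no signal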
rRNA inh HTS RFP = also measured in rRNA inh HTS; calls as there; RFP signal change, %; measured here: RFP humanized mutant strains;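 first replicate; 0 = DMSO median and -100 = no signal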
Starred values were filed as active, the others as inactive; i = inactive; ? = inconclusive; / = not tested or not shown; & = joins results of further samples. This is a subset; the hit share may differ from the screen's.

structure | ALR H2O2 inh | rRNA inh HTS | AF4-AF9 inh | FGF22 binding | Ecoli growth | rRNA inh HTS OD600 | HNF4A DNA FP | rRNA inh HTS RFP | Vif A3G
Nc1c(C(=O)c2ccc(Cl)cc2)sc2c1c(=O)[nH]c(=O)n2-c1ccccc1 | -4 | / | / | / | 0.66 | / | 1.0 | / | /
CCCCn1c(N)c(N(CCOC)C(=O)c2cnc(C)cn2)c(=O)[nH]c1=O | -3 | 3 | -1.0 | i | 0.72 | 7 | 0.6 | -2.0 | 6%
Cc1ccc(NC(=O)C2CCN(S(=O)(=O)c3cccc(C(F)(F)F)c3)CC2)nc1 | -3 | 7 | -0.8 | / | 0.71 | 15 | -2.4 | -0.8 | 3%
CCCCN(C(=O)c1c(CC)noc1C)c1c(N)n(CC(C)C)c(=O)[nH]c1=O | -2 | 5 | 1.3 | i | 0.66 | 8 | 5.7 | -1.6 | -9%
Cc1ccc(-n2nc3c(=O)n(C(C)C(=O)NC4CC4)nc(C)c3c2C)cc1 (centres undefined) | / | 5 | 0.8 | i | 0.67 | 3 | -1.6 | 0.4 | /
CC(C)c1ccc(NC(=O)Nc2cnccn2)cc1 | -3 | -4 | 0.4 | i | 0.68 | -2 | 2.4 | -1.1 | /
C[C@H](CO)N1C[C@H](C)[C@H](CN(C)C(=O)Nc2cccc(C(F)(F)F)c2)OCc2cnnn2CCCC1=O | / | -52&-17 | 1.8&-1.5 | i | / | -81&-12 | 2.9 | -19&2.8 | -2%
CC(C)Cn1c(N)c(C(=O)COC(=O)c2cc(S(=O)(=O)N3CCOCC3)ccc2Br)c(=O)n(C)c1=O | / | -5 | 2.9 | i | 0.71 | -9 | -3.1 | 1.7 | /
CCn1c(C)nc2c(C)[n+](CC(=O)c3ccc(Br)cc3)ccc21 | 6 | 10 | -1.5 | / | 0.69 | 3 | 0.1 | -3.5 | -4%
O=C(C[n+]1ccc(C(=O)N/N=C/c2ccc(OCc3ccccc3)cc2)cc1)c1ccccc1 | -1 | 7 | -22 | i | / | 12 | -4.7 | 1.4 | 2%
C[C@@H]1CN([C@@H](C)CO)C(=O)c2cc(NC(=O)Nc3ccccc3)ccc2O[C@H]1CN(C)Cc1ccccc1 | / | 2 | 7.1 | i | / | 0 | / | 2.5 | /
C[C@@H]1CN([C@H](C)CO)C(=O)c2cccc(NC(=O)c3ccc(-c4nccs4)cc3)c2O[C@@H]1CN(C)Cc1ccncc1 | / | -5 | 0.4 | i | / | -4 | / | -1.2 | /
CCN(CC(=O)Nc1ccc(NC(C)=O)cc1)C(=O)/C=C/c1cn(Cc2ccccc2)nc1-c1cccnc1 | / | 5 | 1.2 | i | 0.7 | -7 | -0.3 | -0.3 | -11%
CCC(C)(C)n1nnnc1C(c1ccncc1)N1CCN(c2cccc(OC)c2)CC1 (centres undefined) | 28 | -11 | 3.4 | i | 0.68 | 6 | 1.6 | 6.2 | -1%
CCc1ccccc1NS(=O)(=O)c1cc(C)ccc1OC | -3 | / | / | / | 0.76 | / | -2.2 | / | 12%
Cc1ccc(NC(=O)Nn2cnnc2)c(C)c1 | -4 | 7 | -3.8 | i | 0.66 | 9 | 0.2 | -0.7 | /
CCC1CCCCN1CC(O)Cn1c2ccccc2n2c(=O)cc(C)c(C#N)c12 (centres undefined) | / | / | / | / | 0.68 | / | 2.4 | / | -3%
O=C(c1cccs1)N1C[C@H](O)[C@@H](n2cc(-c3ccc(F)cc3)nn2)C[C@@H]1c1ccccc1 | / | -8 | -1.9 | i | / | -10 | -6.0 | -3.9 | /
CCCCn1c(N)c(N(CC(C)C)C(=O)CCNC(=O)c2ccc(Cl)cc2)c(=O)[nH]c1=O | 2 | 12 | -0.5 | i | 0.7 | 14 | 3.0 | 3.8 | -5%
CCNC(C(=O)c1c[nH]c2c(CC)cccc12)c1ccccc1 (centres undefined) | 7 | -9 | 7.9 | i | 0.64 | -46 | -1.4 | 28 | /
Cc1ccc(-c2nc(CS(=O)(=O)CC(=O)NC3CCCCC3C)c(C)o2)cc1 (centres undefined) | 18 | 9 | -3.7 | i | 0.75 | 7 | -0.5 | -0.7 | 15%
CCCNC(=O)C1(C)CCN1C(=O)Cc1ccc(C(C)(C)C)cc1 (centres undefined) | / | -12 | -0.1 | i | / | -14 | 2.1 | 1.1 | /
CCOC(=O)N/N=C/c1cn(Cc2ccc(Cl)cc2)c2ccccc12 | -4 | / | / | / | / | / | -3.4 | / | 8%
CC(C)NC(=O)CC1Nc2c3ccccc3nc(=S)n2C1=O (centres undefined) | 88* | / | / | / | 0.66 | / | 4.9 | / | 5%
CCn1c(=O)c2c(cnn2C)c2ccccc21 | -2 | / | / | / | 0.7 | / | -3.7 | / | -2%
COc1cc(C(=O)NC(=S)NCc2ccncc2)cc(OC)c1OC | / | 2 | 0.3 | i | / | -25 | 3.2 | 7.2 | /
Cc1nc2ccc(NS(=O)(=O)c3ccc(F)cc3F)cc2s1 | / | -5 | 2.3 | i | 0.65 | -9 | 22 | 5.7 | 82%
COc1cc(CN2C[C@@H](CO)O[C@@H](n3cnc4c(N(C)C)ncnc43)C2)cc(OC)c1OC | / | 8 | -1.8 | i | / | 16 | -3.5 | -2.4 | /
C=C1CCC[C@]2(C)C[C@H]3OC(=O)C(CN4CCOCC4)[C@H]3C[C@@H]12 (some centres undefined) | -4 | 0 | -2.8 | i | 0.63 | 5 | 1.6 | -0.5 | -1%
C[C@H]1CCCCO[C@H](CN(C)S(=O)(=O)c2ccc(F)cc2)[C@@H](C)CN([C@@H](C)CO)C(=O)c2cc(NS(=O)(=O)c3cn(C)cn3)ccc2O1 | / | -3 | -15 | i | / | 1 | / | 0.2 | /
Cc1cc2c(cc1C)NC(c1ccccn1)C1=C(CC(C)(C)CC1=O)N2 (centres undefined) | 99* | / | / | / | 0.72 | / | -0.4 | / | 12%
O=C(CSc1ccc(-c2ccc(Cl)cc2)nn1)NC1CCCC1 | -13 | 17 | 0.0 | i | 0.74 | 15 | 3.3 | 0.2 | /
Cc1cc(C)c(NC(=O)/C(C#N)=C/c2ccc(OCc3ccc(F)cc3)cc2)c(C)c1 | 3 | 4 | -3.0 | i | 0.63 | 4 | -1.5 | -3.4 | /
CCOc1ccc(-c2nn(-c3ccccc3)cc2/C=C2\SC(N)=NC2=O)cc1C | 3 | / | / | / | 0.77 | / | 57* | / | -5%
CCCC#Cc1ccc2c(c1)O[C@H](CN(C)C(=O)c1ccccc1)[C@@H](C)CN([C@@H](C)CO)S2(=O)=O | / | -5 | 5.4 | i | / | -35 | / | 7.3 | /
CCCCOc1ccc(C(=O)NCC(=O)NC2CC2)cc1 | / | 5 | -1.1 | i | 0.67 | -1 | -4.0 | -2.6 | -3%
C=CCNC(=O)NC(=O)COC(=O)COc1ccc(Br)cc1F | -7 | / | / | / | 0.69 | / | 2.7 | / | -1%
COCCNc1nnc(SCC(=O)Nc2nnc(-c3ccccc3)o2)s1 | -12 | 18 | -1.9 | i | 0.67 | 15 | -0.6 | 1.7 | -15%
O=C(Nc1cccc(NC(=O)c2ccccc2Cl)c1)c1ccc(F)cc1 | -4 | -15 | -2.6 | i | 0.6 | -16 | 0.1 | -1.9 | 2%
Nc1ccc2sc(N)nc2c1 | 91* | 20 | -36 | i | / | 17 | 5.0 | -4.1 | /
Cc1ccc(C(=O)NCC(c2ccc(F)cc2)N2CCOCC2)cc1S(=O)(=O)N1CCOCC1 (centres undefined) | / | / | -1.0 | i | 0.66 | / | -0.4 | / | /
CCOC(=O)c1c(C)[nH]c(C(=O)COC(=O)C2(C)CC2(Cl)Cl)c1C (centres undefined) | / | / | / | / | 0.74 | / | 2.3 | / | 4%
OCCCNc1cc(-c2ccnc(Nc3cccc(Cl)c3)n2)ccn1 | -7 | -20* | -8.8 | i | 0.64 | 14* | 0.4 | 7.5* | 0%
CCN1C(=O)/C(=C2/C=Cc3ccccc3N2CC)SC1=S | 99* | -4 | ? | i | 0.66 | 9 | 8.9 | 0.1 | /
CCNC(=O)N(C)c1c(CC)nc2ccc(C(=O)N3CCN(C(C)=O)CC3)cn12 | / | 5 | -3.1 | i | / | 8 | 4.0 | 1.8 | /
CC(C)c1nc(SCC(=O)NCc2ccccc2)n[nH]1 | / | / | / | / | 0.8 | / | 2.5 | / | 14%
CCCCCCn1cc(CN2CC(N(C)CCC)CS2(=O)=O)nn1 (centres undefined) | / | 9 | -2.9 | i | / | 11 | 2.8 | -6.6 | /
Cc1ccc(OCCn2ccnc2)c([N+](=O)[O-])c1 | -8 | 5 | -5.5 | i | 0.69 | 1 | -1.3 | -0.4 | /
C=CCn1c(CCNC(=O)c2cccs2)nnc1SCC(=O)c1cccc([N+](=O)[O-])c1 | -4 | / | / | / | 0.71 | / | 0.8 | / | 7%
CC1CN(CCOc2ccccc2C(C)C)CC(C)O1 (centres undefined) | 23 | 2 | 3.0 | i | 0.72 | 3 | -0.6 | -0.2 | /

(listing goes on)
structure | ALR H2O2 inh | rRNA inh HTS | AF4-AF9 inh | FGF22 binding | Ecoli growth | rRNA inh HTS OD600 | HNF4A DNA FP | rRNA inh HTS RFP | Vif A3G
Cc1cc(-c2n[nH]c(=S)n2Cc2ccccc2)cs1 | 9 | -20 | -3.4 | i | 0.64 | -19 | 2.8 | -5.3 | /
CCOC(=O)N1CCN(C(=O)CNS(=O)(=O)c2c(C)cc(C)cc2C)CC1 | 2 | 9 | 0.2 | i | 0.69 | -2 | -2.2 | -1.3 | /
CCOC(=O)C1=C(C)NC(C)=C(C(=O)OCC)C1C(=O)OCC(N)=O | -3 | 12 | 1.4 | i | 0.71 | -2 | 0.1 | 1.9 | ?
CCNC(=S)Nc1c(C)n(C)n(-c2ccccc2)c1=O | -11 | 11 | -2.3 | i | 0.67 | 5 | 2.0 | 0.0 | 2%
Cc1cc(C)nc(N2CCN(CC(=O)NCc3ccccc3)CC2)n1 | 2 | / | / | / | 0.74 | / | 2.8 | / | 1%
C[C@@H]1CCCCO[C@H](CN(C)Cc2ccccc2)[C@@H](C)CN([C@H](C)CO)C(=O)c2cc(NS(=O)(=O)c3cccs3)ccc2O1 | / | 1 | -0.5 | i | / | 1 | / | -1.8 | /

3 of these compounds, set out differently.
C[C@@H]1CCCCO[C@H](CN(C)Cc2ccccc2)[C@@H](C)CN([C@H](C)CO)C(=O)c2cc(NS(=O)(=O)c3cccs3)ccc2O1
  ALR H2O2 inh: / | rRNA inh HTS: 1 | AF4-AF9 inh: -0.5 | FGF22 binding: i | Ecoli growth: / | rRNA inh HTS OD600: 1 | HNF4A DNA FP: / | rRNA inh HTS RFP: -1.8 | Vif A3G: /
CCNC(=S)Nc1c(C)n(C)n(-c2ccccc2)c1=O
  ALR H2O2 inh: -11 | rRNA inh HTS: 11 | AF4-AF9 inh: -2.3 | FGF22 binding: i | Ecoli growth: 0.67 | rRNA inh HTS OD600: 5 | HNF4A DNA FP: 2.0 | rRNA inh HTS RFP: 0.0 | Vif A3G: 2%
CCOC(=O)N1CCN(C(=O)CNS(=O)(=O)c2c(C)cc(C)cc2C)CC1
  ALR H2O2 inh: 2 | rRNA inh HTS: 9 | AF4-AF9 inh: 0.2 | FGF22 binding: i | Ecoli growth: 0.69 | rRNA inh HTS OD600: -2 | HNF4A DNA FP: -2.2 | rRNA inh HTS RFP: -1.3 | Vif A3G: /
